# Six1-Eya2 inh – Six1/Eya2 interaction inhibition. activity change, % (concentration not given with the values). Q15475+O00167. hit rate 0.56% among 360,000. AID 651725. AlphaScreen GST-Six1/His-Eya2 binding, biochemical; hits give low values; control for the full effect not named in the record; in the data active = activity change below about -65%; inconclusive = about -30% to -65%; inactive = above about -30%; further: on the % scale 0 is the no-effect control and ±100 the full control effect
#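 Six1/Eya2 binding was read as AlphaScreen signal after compounds were pinned into GST-Six1 plus His-tagged Eya2 (5X stock 250/500 nM) in pH 8.0 Tris/NaCl/TCEP buffer, beads added, then incubated 1 h, 37 C, dark.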
# TRPML1 inh – blocks the human TRPML1 channel. hit rate 0.02% among 390,000. activity change, negative = inhibition, % (no concentration beside the values). TRPML1-inducible cells, Ca2+ dye fluorescence, FDSS; hits give low values; inhibition of EC80 agonist-evoked calcium signal. AID 624415. Q9GZU1; in the data active means activity change below about -50%; inconclusive means about -30% to -50%; inactive means above about -30%;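 further: stimulus is agonist 54-4 at its EC80 concentration; on the % scale 0 is the no-effect control and ±100 the full control effect; compound concentration not given in the record; the text of the record puts the active cut at -80%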
# Target sequence (Q9GZU1 whole entry, looked up): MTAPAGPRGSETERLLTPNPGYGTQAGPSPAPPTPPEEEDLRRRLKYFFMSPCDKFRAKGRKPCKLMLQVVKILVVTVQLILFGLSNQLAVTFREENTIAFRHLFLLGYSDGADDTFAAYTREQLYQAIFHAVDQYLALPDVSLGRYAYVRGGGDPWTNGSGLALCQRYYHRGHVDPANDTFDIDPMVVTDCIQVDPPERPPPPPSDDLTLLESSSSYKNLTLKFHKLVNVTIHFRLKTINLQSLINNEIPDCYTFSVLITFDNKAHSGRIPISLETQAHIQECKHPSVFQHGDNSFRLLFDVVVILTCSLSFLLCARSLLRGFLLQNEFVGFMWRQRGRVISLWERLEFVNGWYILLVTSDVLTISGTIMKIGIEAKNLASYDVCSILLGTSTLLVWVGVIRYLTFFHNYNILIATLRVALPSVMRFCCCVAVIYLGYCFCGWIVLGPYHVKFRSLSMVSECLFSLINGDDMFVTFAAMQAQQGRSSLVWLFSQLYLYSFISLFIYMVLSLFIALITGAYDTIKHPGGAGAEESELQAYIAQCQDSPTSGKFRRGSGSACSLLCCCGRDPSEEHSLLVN
#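 Tet-induced TRPML1-DL cells loaded with Ca8 no-wash calcium dye were read kinetically on FDSS. Compound addition was followed by EC80 agonist 54-4 (4 uM final); inhibition was read over 110 s.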
# TRPML1 ag – agonists of human TRPML1 channel | Q9GZU1 | TRPML1-expressing cells, Ca2+ dye fluorescence, FDSS; host cell line not named in the record; reference of the full effect not given here | activation, % (test concentration not listed) | hit rate 0.12% among 410,000 | AID 624414; in the data active = activation above about 50%; inconclusive = about 30% to 50%; inactive = below about 30%; further: 0% is about no effect; the text of the record puts the active cut at 80%
#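 Tetracycline-induced TRPML1-DL cells are seeded and incubated overnight before loading with a no-wash Ca2+ dye and quencher. Agonist activity is taken from the 110 s fluorescence read following compound pin-transfer on an FDSS, before EC80 54-4 challenge.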
# CtBP-E1A blk – inhibitors of CtBP/E1A interaction; AlphaScreen GST-E1A/His-CtBP binding, 1536-well; hits give low values; control for the full effect not named in the record; activity change, % (no concentration beside the values); hit rate 0.49% among 340,000; in the data active means activity change below about -65%; inconclusive means about -30% to -65%; inactive means above about -30%; further: on the % scale 0 is the no-effect control and ±100 the full control effect; compound concentration not given in the record
#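 In 5 uL wells, 23 nL compound meets equimolar GST-E1A and His-CtBP (5X stock 125 nM each) for 2 h, 37 °C. Beads (5X, 50 ug/mL) then 1 h, 37 °C, dark.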
# TRPV1 PAM – potentiators of human vanilloid receptor 1 (TRPV1) | Q8NER1 | TRPV1-expressing cells, Fluo-8 calcium influx, capsaicin EC20 potentiation; host cell line not named in the record; control for the full effect not named in the record | potentiation, % at 8.33 µM | hit rate 0.02% among 320,000 | AID 540277; active means potentiation above 80%; inconclusive means 30% to 80%; inactive means below 30%; further: 0% is about no effect
#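 TRPV1-expressing cells were cultured overnight at 35.5C and loaded with Fluo-8 calcium dye for 40 to 90 min at room temperature. After a 10 s baseline, compound was added and calcium influx was read kinetically for 3 min (ex 480/em 520 nm).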
# D2 potentiator – human D2 receptor positive allosteric modulation; potentiation, % (concentration not given with the values); AID 624464; P14416; DiscoveRx D2 beta-arrestin cells, luminescence, 90 min; 100% = 57 uM dopamine signal; hit rate 0.23% among 360,000; active = potentiation of 50% or more; inconclusive = 30% to 50%; inactive = 30% or less;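 further: compound concentration not given in the record; tested on top of an EC20 dose of dopamine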
# Target sequence (P14416 whole entry, looked up): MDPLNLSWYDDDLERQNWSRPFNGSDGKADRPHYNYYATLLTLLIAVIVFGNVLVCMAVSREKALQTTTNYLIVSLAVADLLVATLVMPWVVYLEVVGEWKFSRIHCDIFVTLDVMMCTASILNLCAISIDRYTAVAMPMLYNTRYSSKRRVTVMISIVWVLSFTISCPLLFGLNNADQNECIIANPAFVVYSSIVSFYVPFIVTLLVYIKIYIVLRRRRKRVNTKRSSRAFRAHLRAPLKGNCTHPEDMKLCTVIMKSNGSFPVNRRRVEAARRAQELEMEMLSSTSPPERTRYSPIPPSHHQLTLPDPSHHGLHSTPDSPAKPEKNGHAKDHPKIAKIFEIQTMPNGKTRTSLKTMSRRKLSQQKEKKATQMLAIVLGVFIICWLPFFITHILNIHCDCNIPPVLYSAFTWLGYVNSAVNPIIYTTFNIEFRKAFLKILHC
#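 D2 cells co-treated with compound plus 50 nM dopamine (EC20) for 90 min at 37 deg C to detect potentiation. Beta-arrestin recruitment was read as enzyme-fragment luminescence after 1 h at ambient temperature. Full response was set by 57 uM dopamine.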
# An asterisk follows results filed as active; u = inconclusive; x = not tested or not shown; & = joins results of further samples.
SMILES,Six1-Eya2 inh,TRPML1 inh,TRPML1 ag,CtBP-E1A blk,TRPV1 PAM,D2 potentiator
CC(C)(C)NC(=O)C[C@H]1C[C@H](C(=O)N2CCOCC2)[C@@]2(C)c3[nH]c4ccc(Cl)cc4c3CCN2C1=O,-2,8,3.1,-1,x,-8
Cc1ccc(S(=O)(=O)Nc2ccc(O)c(S(=O)(=O)c3ccc(C)cc3)c2)cc1,2,7,-0.5,0,-2,2
Cc1coc2cc3oc(=O)ccc3cc12,-20,18,-0.5,x,3,-16
NN=C(c1cccc([N+](=O)[O-])c1)c1cccc([N+](=O)[O-])c1,-6,-7,0.4,-2,x,-8
CCc1ccc2oc(C(=O)NCC(c3ccc(OC)cc3)N3CCCCC3)c(C)c2c1 (centres undefined),-1,21&1,-0.7&-0.8,-1,1,-20
COC(=O)C1=C(C)NC(C)=C(C(=O)OC)C1c1ccc(C)o1,-2,24,-0.4,-1,3,2
COc1ccc(NC(=O)C2CCCN2S(=O)(=O)c2ccc(Cl)cc2)cc1 (centres undefined),-3,-15,1.3,-5,-4,-10
COC(=O)C1=C[C@@H](C(=O)OC)[C@@H]2C3=C(C(=O)C2(C)C)[C@H](C)n2c(=O)n(-c4ccccc4)c(=O)n2[C@@H]3C1,3,6&-11,-0.4&0.7,3,x,-22
CC(=O)Nc1cc(O)cc(O)c1,7,32,0.7,1,-2,0
COc1ccc(CNC2CCCC2)c(OC)c1OC,5,-12,-0.2,-4,-5,0
O=C(O/N=C/c1cccc([N+](=O)[O-])c1)C1CC1,8,18,-0.9,-2,29,1
O=C(O)CN(Cc1ccco1)S(=O)(=O)c1ccc(F)cc1,0,2,0.7,7,9,-15
C=CCN1C(=O)c2ccccc2Sc2ccc(C(=O)NCC(OC)OC)cc21,3,1,1.8,5,-1,6
COc1ccccc1Cn1c(C)c(C(=O)NCc2ccc3c(c2)OCCO3)sc1=O,-18,x,0.1,-7,x,0
CCC[N+](CC#CCO)(CC#Cc1ccccc1)CCC,6,-17,-0.4,12,19,9
CCOC(=O)c1c(S(=O)(=O)NCC(=O)N2CCN(c3ccc(OC)cc3)CC2)c(C)n(C)c1C,-2,-12,-0.1,-28,1,-6
O=C(CCCC(=O)OCC(F)(F)C(F)F)Nc1ccc(NC(=O)CCCC(=O)OCC(F)(F)C(F)F)cc1,3,15,0.3,11,6,0
CC[C@H](C)[C@H](NC(N)=O)C(=O)NCCc1ccc(OC)c(OC)c1,6,-5,-0.6,-17,9,-5
CCN1CCc2[nH]c3ccccc3c2C1,9,26,0.3,x,-10,-19
CCS(=O)(=O)N1CCC(C(=O)NCc2cccc(OC)c2)CC1,18,u,1.1,0,2,-2
CC(=O)N1CC23C=CC(CC2CC12CCCCCC2)O3 (centres undefined),-4,11,2.2,x,-7,-2
CCNC(=O)COC(=O)C1C(C(=O)OCC)=C(C)NC(C)=C1C(=O)OCC,4,5,-0.2,-1,7,-1
O=C1CSC(=S)N1/N=C/c1c(F)cccc1F,-20,-1,0.7,u,0,2
Cc1ccc2nc(SCC(=O)Nc3cc(C)on3)c(C)cc2c1,11,38,0.6,2,17,-4
CS(=O)(=O)c1ccc(NC(=O)CCN2C(=O)NC3(CCCC3)C2=O)cc1,0,23,-0.2,x,-13,2

# Random excerpt: 4 compounds from above, in no set order.
SMILES,Six1-Eya2 inh,TRPML1 inh,TRPML1 ag,CtBP-E1A blk,TRPV1 PAM,D2 potentiator
CC(=O)N1CC23C=CC(CC2CC12CCCCCC2)O3 (centres undefined),-4,11,2.2,x,-7,-2
COc1ccccc1Cn1c(C)c(C(=O)NCc2ccc3c(c2)OCCO3)sc1=O,-18,x,0.1,-7,x,0
COc1ccc(CNC2CCCC2)c(OC)c1OC,5,-12,-0.2,-4,-5,0
C=CCN1C(=O)c2ccccc2Sc2ccc(C(=O)NCC(OC)OC)cc21,3,1,1.8,5,-1,6

# The main list resumes, starting 3 compounds before the break.
SMILES,Six1-Eya2 inh,TRPML1 inh,TRPML1 ag,CtBP-E1A blk,TRPV1 PAM,D2 potentiator
O=C1CSC(=S)N1/N=C/c1c(F)cccc1F,-20,-1,0.7,u,0,2
Cc1ccc2nc(SCC(=O)Nc3cc(C)on3)c(C)cc2c1,11,38,0.6,2,17,-4
CS(=O)(=O)c1ccc(NC(=O)CCN2C(=O)NC3(CCCC3)C2=O)cc1,0,23,-0.2,x,-13,2
COc1cccc(NC(=O)c2cc3c(=O)n4ccccc4nc3n(CC(C)C)c2=N)c1,9,35,-0.6,-1,19,-2
CC1=CC(=O)C=CC1(C)C(Cl)(Cl)Cl (centres undefined),-1,14,1.1,6,-14,-9
C(=N\C(/N=C/c1ccco1)c1ccco1)/c1ccco1,-5,3,0.5,-10,-5,-13
CC(=O)Nc1ccc2nc(-c3cccn3C)[nH]c2c1,0,-6,0.1,-18,28,-1
O=C(Oc1cccc(NC(=O)c2ccco2)c1)c1ccc(Br)c(S(=O)(=O)N2CCCCC2)c1,-6,54,5.7,0,0,-6
O=C1C2CCCN2C(c2ccc(F)cc2)N1c1cccc(Cl)c1 (centres undefined),9,-2,-0.2,0,5,-9
Cc1noc(C)c1C(=O)N1CCN(Cc2ccccc2)CC1,1,9,4.1,-5,u,6
COc1ccccc1N(Cc1ccccc1)S(=O)(=O)c1cccc(C(=O)Nc2ncccc2C)c1,12,15,0.0,0,-1,-14
NC(=O)c1nsc(C(=O)N(Cc2cccnc2)C(C(=O)NCc2ccccc2)c2ccc(O)cc2)c1N (centres undefined),1,6,-0.8,22,4,-10
CCOC(=O)c1c(C)[nH]c(C)c1C(=O)COC(=O)c1cccc(S(=O)(=O)N(CC)CC)c1,-11,-8,-0.9,-2,3,8
Cc1ccc(CNn2cnnc2SCc2ccc(F)cc2)cc1,2,0,-0.1,-1,2,-14
Cc1csc(NC(=O)CCC(=O)N(CC(=O)NC2CCCC2)Cc2ccccc2)n1,6,8,4.1,2,-2,-1
CSc1ccc(NC(=O)NCc2ccccc2)cc1,3,22,0.4,10,-21,-19
COc1ccc(-c2csc3ncnc(N4CCN(c5ccccc5O)CC4)c23)cc1,-12,-3,-0.1,-10,-16,-3
COc1ccc(NC(=O)Nc2ccccc2F)cc1Cl,6,5,-0.5,0,-10,-3
O=C(Oc1cncc(Cl)c1)c1sccc1Cl,u,2,1.0,6,x,-4
O=C(NCCCN1CCCC1)C1CCC(=O)N1C1CCCCC1 (centres undefined),4,0,0.4,1,5,7
COc1ccc(/C(N)=N/OC(=O)CSc2ccc(C)cc2)cc1OC,9,22,2.6,23,9,-8
CC(=O)Nc1ccc(CN(C)CC2CCCN(CCc3cccc(C(F)(F)F)c3)C2)cc1 (centres undefined),6,8,1.1,-17,-11,-8
CCCNCc1cc(Br)ccc1OCC(=O)NCCc1ccccc1,-4,-7,1.4,9,-17,-29
COc1ccc(CNS(=O)(=O)c2ccc(OC)cc2)cc1,11,-20,1.1,1,-6,-12
CC(NC(=O)c1cncc(Br)c1)c1ccc(S(N)(=O)=O)cc1 (centres undefined),13,64,1.2,-1,-2,1
O=C(CNC(=O)C1CCCCC1)Nc1cc(Cl)ccc1Cl,8,13,-0.1,8,-2,-15
CSCc1c(C(=O)Nc2ccc3c(c2)OCO3)oc2ccccc12,-15,41,2.4,-16,-15,-5
Cn1nc(C(=O)N2CCOCC2)c2ccccc2c1=O,4,1,-0.4,8,x,10
# Next records
SMILES,Six1-Eya2 inh,TRPML1 inh,TRPML1 ag,CtBP-E1A blk,TRPV1 PAM,D2 potentiator
CC(=O)NC(CC(=O)NCCc1ccccc1)c1ccccc1 (centres undefined),0,18,0.0,3,16,-7
CCc1cccc(NC(=O)C2CCN(S(=O)(=O)c3ccc4c(c3)CC(C)N4C(C)=O)CC2)c1 (centres undefined),2,-17,-0.3,-12,-16,-1
CSc1nc(=S)n(-c2cc(C)ccc2C)c(C)c1C(C)=O,2,-14,-0.9,-22,2,-7
Cc1cccn2cc(CCNS(=O)(=O)c3cccs3)nc12,-5,2,0.1,-4,-7,-6
COc1ccc(CCNC(=O)CCn2c(=O)[nH]c3cc(OC)c(OC)cc3c2=O)cc1OC,0,-1,-0.7,3,-4,17
NCCNC(=O)c1c(O)c2cccc3c2n(c1=O)CCC3,12,-2,-0.1,-30,-5,0
Cc1ccc(-c2cc(-c3ccccc3C)[nH]n2)c(O)c1,9,24,2.2,5,-4,-9
COc1ccc(/C(O)=C2\C(=O)C(=O)N(CC3CCCO3)C2c2cc(OC)ccc2OC)cc1 (centres undefined),1,2,-0.3,10,3,-6
COc1ccc(C(=O)O)cc1S(=O)(=O)N(C)CCc1ccccn1,3,43,-0.1,6,-3,-3
CN1CCN(C(=O)C2CCC(C)(C(=O)O)C2(C)C)CC1 (centres undefined),3,-5,0.0,-2,6,-4
COc1ccccc1C1CCN(Cc2ccccc2Cl)CC1,9,51,-0.3,5,-8,-15
O=C(Cn1cc2c(n1)CCCC2)Nc1ccccc1Br,1,-13,1.3,5,-23,-1
Cc1ccc(-c2cc(C(=O)NCCN3CCOCC3)no2)cc1,1,0,0.0,9,-6,-11
O=c1[nH]c(=O)n(C2CC(O)C(CO)O2)cc1Br (centres undefined),3,3,1.6,5,x,-3
CC1COc2ccccc2N1C(=O)c1ccc(F)cc1 (centres undefined),-2,29,2.3,-11,-8,-3
CCc1cccc(CC)c1NC(=O)CSc1nnc(CCC(=O)O)c(=O)[nH]1,-8,22,0.4,4,-8,-3
Cc1cc(N/N=C(/CCC(=O)O)C(=O)O)nc2ccccc12,u,18,-0.6,u,-7,-4
O=S1(=O)CCN(C2CCCCCCC2)CC1,4,5,-0.8,-4,x,3
CN1OC[C@@H]2CN(C(=O)c3cccc4ccccc34)[C@H](c3ccc(N4CCCCC4)cc3)C[C@@H]21,-11,x,-0.5,-6,x,-5
COc1ccccc1OCC(=O)NNC(=O)C(=O)N1CCCC1,4,20,0.0,6,12,-4
Clc1cccc(Cl)c1CNCCCSc1ncccn1,1,-1,-0.3,x,7,-54
COc1ccccc1C(C(=O)NCc1ccccc1)N(C(=O)c1csnn1)C1CC1 (centres undefined),2,15,-0.7,28,21,-10
Cc1nnc(SCC(=O)Nc2sc3c(c2C(N)=O)CCCC3)[nH]c1=O,-2,21,0.7,-5,u,-1
CCCNC(=S)Nc1cc2oc3ccccc3c2cc1OC,-20,18,0.7,-9,2,-8
CC(=O)n1cc([C@@H]2C=C(C(=O)NCc3ccccc3)O[C@H](OCc3ccc(CO)cc3)C2)c2ccccc21,-6,23,-0.3,-2,16,8
O=C(CSCc1ccc(F)cc1)Nc1ccccc1C(=O)N1CCOCC1,2,-9,0.1,9,2,-11
COc1ccc(-n2ncc3c2CC(C)(C)CC3NC(=O)CN2CCOC2=O)cc1 (centres undefined),-17,8,-0.1,-7,0,3
CC1Cc2ccccc2N1C(=O)COC(=O)c1ccc(S(=O)(=O)N(C)C)cc1 (centres undefined),-1,7,2.0,2,6,0
CCN(CC(=O)Nc1c(F)cccc1F)C(=O)CCNS(=O)(=O)c1ccccc1C(F)(F)F,5,-6,0.1,-4,2,6

# Compound activity: PubChem, National Center for Advancing Translational Sciences (NCATS)
